nsP2pro primary – inhibitors of chikungunya virus nsP2 protease | FRET peptide cleavage, nsP2pro, fluorescence 1 h | Potency, µM (highest dose often 24.9 µM), inactives show at the highest dose activity change, negative = inhibition, usual class: inhibitors | actives 1.1% (n = 31,000) | AID 1964107; active means well fitted inhibition curve with a large enough effect; inconclusive means small, poorly fitted or top-dose-only effect; inactive means no such curve, though single readings can be large or run the other way; further: nearly all actives have a fitted effect of over 60% in size; a reference inhibitor and vehicle were the controls
Active calls of the source: *; i = inactive; ? = inconclusive; & = joins results of further samples; [ ] = another dose, or the depositor's remark. On the % scale 0 is the no-effect control and ±100 the full control effect; potency means the concentration at half of the fitted maximal effect. The list is partial; count on the stated rates, not on these rows.

mol	nsP2pro primary
Cc1nnc2n1CCC(NC(=O)c1cnccn1)CC2 (stereo not drawn)	3%
CN[C@@H]1[C@H](O[C@H]2[C@H](O[C@@H]3[C@@H](O)[C@H](O)[C@@H](N=C(N)N)[C@H](O)[C@H]3NC(=N)N)O[C@@H](C)[C@]2(O)CO)O[C@@H](CO)[C@H](O)[C@H]1O	3%
Cc1ccc(Cn2ccc(NC(=O)c3cc(-c4ccc(Cl)c(Cl)c4)on3)n2)cc1	-24%
Cc1cccc(NC(=O)Cn2c(=O)oc3cc(S(=O)(=O)N4CCCCCC4)ccc32)c1	-1%
CC1(C)[C@H]2CC[C@@H](CNC(=O)c3cncc(Br)c3)[C@@H]1C2	i
O=C(C1CCCCC1)N(Cc1cccnc1)c1nc2ccc(F)cc2s1	-10%
Cc1cc2oc(C(=O)Nc3c(C(=O)Nc4ccccc4)oc4ccccc34)cc(=O)c2cc1C	-13%
CC(=O)c1ccc(NC(=O)c2cc3sccc3n2Cc2ccc(Cl)cc2)cc1	17%
Cn1ccnc1CN1C(=O)CO[C@H]2CN(C3CCCCC3)C[C@H]21	2%[39.2 µM]
Cc1c(-c2ccccc2)c(=O)oc2ccc(OC(=O)N3CCOCC3)cc12	20%
Oc1ccc(CNCc2ccccc2F)c2cccnc12	i
CCOc1ccccc1C1CC(=O)NC(C)=C1C(=O)OC1CCCCCC1 (stereo not drawn)	-24%
COC(=O)[C@H](NC(=O)[C@@H]1C[C@H](NC(=O)Nc2ccc(OC)cc2)CN1C(=O)c1cccn1C)C(C)C	-11%
COc1ccc(N2CCN(C(=O)CCc3c(C)nc4c(-c5ccccc5)c(C)nn4c3C)CC2)cc1	-14%
CC1=C(c2ccc(C(C)C)cc2)S(=O)(=O)NC1=NCCCN1CCN(c2ccccc2F)CC1	-6%
O=C(CSc1nc2ccccc2n1Cc1ccccc1)NCc1ccccc1	-11%
COc1ccc(Br)cc1CNC(=O)CCc1cn(Cc2ccc(C)cc2)c2ccccc12	-15%
O=C(NCc1ccncc1)C1c2ccccc2C(=O)N(C2CCCC2)C12CCCCC2 (stereo not drawn)	i
CCCN(Cc1cc2cccc(C)c2[nH]c1=O)C(=O)c1cccc(Cl)c1	-28%
CN1CCCN(C(=O)c2ccccc2F)c2ccccc21	-17%
CO[C@H]1C=CO[C@@]2(C)Oc3c(C)c(O)c4c(O)c(c(/C=N/N5CCN(C)CC5)c(O)c4c3C2=O)NC(=O)/C(C)=C\C=C[C@H](C)[C@H](O)[C@@H](C)[C@@H](O)[C@@H](C)[C@H](OC(C)=O)[C@@H]1C	-20%
c1cncc(CNc2ncnc3ccc(-c4ccc5c(c4)OCO5)cc23)c1	i
CCC(=O)NCCc1sc2nc(-c3ccc(OC)cc3)nn2c1C	-8%
O=C(NCC(c1ccco1)S(=O)(=O)c1ccc(Cl)cc1)c1ccccc1F (stereo not drawn)	-30%
O=[S+]([O-])(c1ccc2c(c1)OCCO2)N1CCN([S+](=O)([O-])c2c(F)cc(F)cc2Br)CC1	-7%
O=C(NCCCc1ccccc1)c1nc2sccn2c1-c1cccc(C(F)(F)F)c1	i
COc1cccc(Cn2nnc(C(=O)NCc3ccc(Cl)cc3Cl)c2N)c1	-13%
CCCCS(=O)(=O)N[C@@H]1CN(Cc2ccncc2)C[C@H]1CN(C)C	?
O=C(NCc1ccccc1Cn1cccn1)c1ccc2cccc(F)c2n1	i
CCOC(=O)COc1ccc2c(C)c(CCN(CC)CC)c(=O)oc2c1	-10%
CC(C)C(=O)Oc1ccc(CO)cc1[C@H](CCN(C(C)C)C(C)C)c1ccccc1	12%&6%
COc1ccc(-n2cc(-c3ccccc3)c3c(NC4CCCCC4)ncnc32)cc1	-29%
Cc1c([S+](=O)([O-])N2CCN([S+](=O)([O-])c3c(F)cccc3F)CC2)sc2ccc(Cl)cc12	-4%
Cc1ccc(C2c3[nH]c4ccccc4c3CCN2C(=O)CSc2ccccc2)cc1 (stereo not drawn)	-17%
Nc1cccc([S+](=O)([O-])N2CCCN([S+](=O)([O-])c3cccc(N)c3)CC2)c1	2%
Cc1cnc(C2CCOCC2)n1C1CCCN(S(=O)(=O)c2cn(C)cn2)C1 (stereo not drawn)	11%
O=C(C1CCCNC1)N1CCCn2cc(-c3ccccc3F)nc21 (stereo not drawn)	-3%
C=C1C(O)CC2C(C(=O)O)=COC(OC3OC(CO)C(O)C(O)C3OC(=O)/C=C\c3ccc(O)cc3)C12 (stereo not drawn)	?
Cc1ccnc(NC(=S)NCCNc2cccc(C(F)(F)F)c2)c1	-8%
CCc1nc2c(c(-c3ccc(Cl)cc3)n1)CN([S+](=O)([O-])c1c(C)noc1C)CC2	i
Cc1nn(Cc2ccccc2)c(C)c1NC(=O)c1cc(C(C)C)on1	-24%
CC1CCC2(C1)N=C(Nc1nc3ccccc3o1)NC1=C2C(=O)CCC1 (stereo not drawn)	-3%
CCn1cc(C(=O)NCCCOC)c(=O)c2cc(S(=O)(=O)N3CCCC3)ccc21	-25%
C=C[C@](C)(O)CC[C@H]1C(C)=CC(=O)[C@H]2C(C)(C)CCC[C@]12C	-1%
O=C1CCCC2=C1C(c1ccccc1I)N=C(Nc1nc3ccccc3o1)N2 (stereo not drawn)	?
COCC(=O)N[C@@H]1CN(Cc2cccn2C)C[C@H]1CO	-15%
CCC(C)NC(=O)c1c(C)oc2nc(C)nc(N3CCOCC3)c12 (stereo not drawn)	-7%
CCOc1ccc(CCNC(=O)c2cc3cccnc3n2Cc2cccc(C)c2)cc1OCC	4%
CC1=CC2OC3CC(O)[C@](C)([C@@]2(C)C(O)C1=O)[C@]31CO1 (stereo partly drawn)	-12%
O=C1CCCCC(C(=O)N2CCCCC2)N1 (stereo not drawn)	1%

Arranged by length of the SMILES (smallest number first): part of the list above.
mol	nsP2pro primary
O=C(NCc1ccccc1Cn1cccn1)c1ccc2cccc(F)c2n1	i
CCC(C)NC(=O)c1c(C)oc2nc(C)nc(N3CCOCC3)c12 (stereo not drawn)	-7%
COc1cccc(Cn2nnc(C(=O)NCc3ccc(Cl)cc3Cl)c2N)c1	-13%
Cc1cnc(C2CCOCC2)n1C1CCCN(S(=O)(=O)c2cn(C)cn2)C1 (stereo not drawn)	11%
Cc1ccc(C2c3[nH]c4ccccc4c3CCN2C(=O)CSc2ccccc2)cc1 (stereo not drawn)	-17%

Entries from the list above with a furan ring, fused or not:
mol	nsP2pro primary
Cc1cc2oc(C(=O)Nc3c(C(=O)Nc4ccccc4)oc4ccccc34)cc(=O)c2cc1C	-13%
O=C(NCC(c1ccco1)S(=O)(=O)c1ccc(Cl)cc1)c1ccccc1F (stereo not drawn)	-30%
CCC(C)NC(=O)c1c(C)oc2nc(C)nc(N3CCOCC3)c12 (stereo not drawn)	-7%

(listing goes on)
mol	nsP2pro primary
OC(CN1CCN(c2cccc(Cl)c2)CC1)C(c1ccccc1)c1ccccc1 (stereo not drawn)	29%
COCCN1Cc2sccc2N(CC(O)COc2ccc(OC)cc2)CCC1=O (stereo not drawn)	-28%
CC(CNC(=O)CCS(=O)(=O)c1ccc2c(c1)oc(=O)n2C)c1ccccc1 (stereo not drawn)	-24%
COc1ccc(CNc2cc3c(cn2)CN(C)CCN3)cc1OC	2%[39.2 µM]
Cc1ccc(C(=O)NCCC(C)C)cc1NC(=O)c1nsc2ccccc12	-26%
CCS(=O)(=O)N1CC(=O)N(c2cccc(Cl)c2)C(C)(C(=O)NC2CCCCCC2)C1 (stereo not drawn)	-17%
Cc1ccc(-c2csc(NC(=O)c3ccccc3NS(=O)(=O)c3ccc(C)cc3)n2)cc1	i
CC(C)(NS(=O)(=O)c1ccc2c(Cl)cnc(N=C(N)N)c2c1)C(=O)O	-18%
COc1ccccc1N1CCN(c2nc(-c3ccc(C)cc3)nc3ccccc23)CC1	-17%
CC(=O)c1ccc(N2CCN(c3ccc(NC(=O)c4cccs4)cc3C(=O)O)CC2)cc1	-28%
CCS(=O)(=O)NCC(c1ccco1)N1CCN(c2ccc(F)cc2)CC1 (stereo not drawn)	-25%
O=P1(N(CCCl)CCCl)NCCCO1 (stereo not drawn)	2%
CC(C)[C@H]1CC[C@@]2(O)COC(=O)[C@H]2[C@@H]1/C=C(\CO)C(=O)O	-14%
CC(=O)Nc1cccc(-c2n[nH]c3c2CC(=O)N(CCOc2ccccc2)C3)c1	i
COc1ccc2c(c1)CCc1sc(NC(=O)c3cccc(Br)c3)nc1-2	-30%
CCOC(=O)c1cc(NC(=O)c2ccc(F)cc2)c(=O)n2c1oc1ccccc12	-10%
O=C(O)CCc1nc2ccccc2[nH]1	-9%
CC(=O)N[C@H]1[C@H]([C@H](O)[C@H](O)CO)OC(C(=O)O)=C[C@@H]1N=C(N)N	-9%&-3%
O=C(Nc1ccc(Cl)c(-c2nc3cc(Cl)ccc3o2)c1)c1cc([N+](=O)[O-])ccc1N1CCOCC1	-12%
Cc1cc2c(cc1S(=O)(=O)CCC(=O)N(C)C1CCCCC1)OCC(=O)N2	-19%
Cc1c(-c2nsc(NC(=O)c3cccs3)n2)nnn1-c1ccc(F)cc1	-10%
CCC(=O)NS(=O)(=O)c1ccc(-c2c(-c3ccccc3)noc2C)cc1	-23%&3%
COc1ccc(-n2nc3n(c2=O)CCN([S+](=O)([O-])c2c(C)noc2C)C3)cc1	-18%
O=C(c1ccccc1O)N(Cc1ccccc1)Cc1cccs1	5%
O=C(OC[C@H]1O[C@@H](OC(=O)c2cc(O)c(O)c(O)c2)[C@H](O)[C@@H](OC(=O)c2cc(O)c(O)c(O)c2)[C@@H]1O)c1cc(O)c(O)c(O)c1	14%
CCCc1ccc(-c2nc(C3CCOC3)no2)cc1 (stereo not drawn)	i
Cc1ccc(Nc2nnc(-c3ccc(C)c(S(=O)(=O)NCc4nc5ccccc5[nH]4)c3)c3ccccc23)cc1	-3%
C#CCN(C)Cc1ccccc1	12%
Cc1ccc(CNC(=O)c2sc3nc4n(c(=O)c3c2C)CCCC4)cc1	-10%
CCOc1ccc(NC(=O)C2CCN(C(=O)N3CC(C)Oc4ccc(Cl)cc43)CC2)cc1 (stereo not drawn)	-1%
CCOC(=O)Cn1c(=O)oc2cc(S(=O)(=O)N3CCC(C(=O)OCC)CC3)ccc21	-20%
COc1ccc(CCC(=O)c2c(O)cc(O[C@@H]3O[C@H](CO)[C@@H](O)[C@H](O)[C@H]3O[C@@H]3O[C@@H](C)[C@H](O)[C@@H](O)[C@H]3O)cc2O)cc1O	6%
Cc1cc2c(s1)c1cnn(Cc3c(F)ccc(C)c3Cl)c(=O)c1n2C	i
Cc1cccc(N(C)S(=O)(=O)c2cc3c(cc2Cl)NC(=O)CO3)c1	-7%
COc1ccccc1N1CCN(CC[C@@](C)(C(=O)C2CCCCC2)c2ccccc2)CC1	3%
O=C(c1ccc(-c2ccc(N3CCCCCC3)nc2)cc1)N1CCCC1	-2%
CCOC(=O)c1cccc(NC(=O)c2cc3c(=O)n(Cc4cccnc4)ccc3nc2C)c1	0%
CCCNC(=O)O[C@@H]1CC[C@]2(C)C(CC[C@@H](O)[C@H]2CC(=O)NCc2ccc(OC)cc2)[C@]1(C)CO (stereo partly drawn)	17%
Cc1ccc(NC(=O)c2cc(-c3cccs3)nc3ccccc23)c(C)c1	-26%
CCn1ccc(C(=O)N2CCCn3ccnc3C2c2cnn(C)c2)n1 (stereo not drawn)	i
COc1cc(CN2CCN(S(=O)(=O)c3ccc(NC(C)=O)cc3)CC2)cc(OC)c1OC	-13%
CC(C)S(=O)(=O)NC[C@H](C)c1ccc(NC(=O)c2cc(F)cc(F)c2)cc1	-15%
CCCCN1C(=O)c2ccccc2C(C(=O)NC2CC2)C12CCCCC2 (stereo not drawn)	-1%
CC(=O)c1cccc(NC(=O)CCS(=O)(=O)c2ccc3c(c2)n(C)c(=O)c(=O)n3C)c1	-13%
COc1ccc(S(=O)(=O)c2c(SC)nn(Cc3ccccc3C)c2NC(C)=O)cc1	-18%
O=C(CN1C(=O)C2(SCC(=O)N2c2ccc(F)c(F)c2)c2ccccc21)NCCc1ccccc1 (stereo not drawn)	-1%
O=C(Nc1ccc(Cl)cc1)Nc1ccc(Cl)c(Cl)c1	-4%
CNC(=O)N1CCC(C2CCN(C(=O)c3ccc4ccccc4n3)C2)CC1 (stereo not drawn)	0%
O=C(O)C(c1ccc2c(c1)OCCO2)N1CCCN(c2ncccn2)CC1 (stereo not drawn)	-4%
Cn1ccnc1CN1C[C@@H](F)[C@@H](OCc2nc3ccccc3[nH]2)C1	i

Next part.
mol	nsP2pro primary
CN(Cc1noc(C2CCCC2)n1)c1cc(C2CC(O)C2)ncn1 (stereo not drawn)	?
COc1cccc(CNc2ccc(S(=O)(=O)Nc3ccc(N4CCNCC4)cc3)cc2)c1O	5%
Cc1noc(-c2cccs2)c1C(=O)NCc1ccccc1Cl	?
C=C(C)C(=O)O[C@H]1[C@H]2C(=C)C(=O)O[C@@H]2C[C@@H](C)/C=C\C(=O)[C@](C)(O)[C@@H]1OC(C)=O	-14%[10 µM]
C[N+](C)(C)C1CCC(CC2CCC([N+](C)(C)C)CC2)CC1 (stereo not drawn)	-2%
COc1cccc(-c2nnc3n2N=C(c2ccccc2OC)CS3)c1	i
CC1CCCCN1CCCOC(=O)c1ccccc1 (stereo not drawn)	-9%
CCCN(C(=O)Cn1cnc2onc(-c3ccc(F)cc3)c2c1=O)c1cccc(Cl)c1	-20%
O=C(Nc1ncc(Cc2cccc(C(F)(F)F)c2)s1)c1ccc(-c2cccc([N+](=O)[O-])c2)o1	?
